# Assay outcomes: PubChem BioAssay, The Scripps Research Institute Molecular Screening Center
# LYPLA1 inh = blocks human lysophospholipase 1, a PME1 counter-screen. O75608. recombinant LYPLA1, FP-Rh probe fluorescence polarization. inhibition, % at 5.9 µM. 320,000 compounds, 0.16% hits. AID 2174;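 active means inhibition above the mean of all tested compounds plus 3 SD, set per campaign, cut at about 14% in these data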;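 further: inhibitors block serine hydrolase probe labeling of LYPLA1 so polarization falls; 0% = enzyme with DMSO and 100% = wells lacking LYPLA1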
# PAFAH1B3 inh = blocks human PAF acetylhydrolase 1B catalytic subunit 3; Q15102; recombinant PAFAH1B3, FP-rhodamine probe, fluorescence polarization; inhibition, % at 3.39 µM; 340,000 compounds, 0.28% hits;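 active means inhibition above the screen-wide average of all tested compounds plus 3 SD, cut at about 25% in these data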;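 further: 0% = enzyme with DMSO only and 100% = wells lacking PAFAH1B3 protein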
# PAD4 FP inh = inhibitors of human PAD4 | Q9UM07 | recombinant PAD4, RCA probe fluorescence polarization | inhibition, % at 6.36 µM | 330,000 compounds, 0.41% hits;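 active means percent inhibition above a cutoff equal to the mean of all tested compounds plus 3 SD, cut at about 15% in these data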;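 further: 0% = PAD4 with RCA probe and DMSO and 100% = probe without PAD4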
# Target sequence (Q9UM07 whole entry, looked up): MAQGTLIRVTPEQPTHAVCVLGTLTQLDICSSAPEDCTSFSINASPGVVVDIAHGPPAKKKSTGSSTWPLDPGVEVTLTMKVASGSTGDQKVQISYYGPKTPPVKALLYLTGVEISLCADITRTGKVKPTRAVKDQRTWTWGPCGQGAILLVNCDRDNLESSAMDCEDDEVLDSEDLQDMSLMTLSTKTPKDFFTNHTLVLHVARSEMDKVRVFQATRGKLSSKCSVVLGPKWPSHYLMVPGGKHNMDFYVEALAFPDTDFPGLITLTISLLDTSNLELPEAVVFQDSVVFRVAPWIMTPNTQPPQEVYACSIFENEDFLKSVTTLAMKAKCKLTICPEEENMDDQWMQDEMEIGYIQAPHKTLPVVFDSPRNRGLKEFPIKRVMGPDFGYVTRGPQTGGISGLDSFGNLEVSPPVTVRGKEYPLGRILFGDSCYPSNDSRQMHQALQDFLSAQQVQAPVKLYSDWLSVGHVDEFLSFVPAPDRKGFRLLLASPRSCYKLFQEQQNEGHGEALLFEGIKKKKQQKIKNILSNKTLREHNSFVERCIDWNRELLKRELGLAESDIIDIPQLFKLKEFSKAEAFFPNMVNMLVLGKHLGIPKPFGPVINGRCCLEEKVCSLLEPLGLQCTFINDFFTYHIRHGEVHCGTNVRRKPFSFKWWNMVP
# LYPLA2 counter = LYPLA2 (human) inhibition in PME1 counter-screen; recombinant LYPLA2, FP-Rh probe fluorescence polarization; inhibition, % at 5.9 µM; 320,000 compounds, 0.38% hits; AID 2177;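 active means inhibition above the screen-wide mean plus 3 SD, limit set per campaign, cut at about 26% in these data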;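 further: 0% = LYPLA2 with DMSO and 100% = wells lacking LYPLA2 enzyme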
# Target sequence (O95372 whole entry, looked up): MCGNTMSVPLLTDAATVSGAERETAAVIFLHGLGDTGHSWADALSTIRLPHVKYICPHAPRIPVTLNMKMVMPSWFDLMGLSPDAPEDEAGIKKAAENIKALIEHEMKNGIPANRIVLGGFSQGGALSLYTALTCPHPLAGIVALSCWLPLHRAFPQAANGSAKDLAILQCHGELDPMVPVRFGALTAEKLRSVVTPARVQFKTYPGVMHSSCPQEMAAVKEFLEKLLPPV
# PAFAH1B2 inh = blocks human PAF acetylhydrolase 1b catalytic subunit 2 | inhibition, % at 3.39 µM | 340,000 compounds, 1.2% hits | P68402 | recombinant PAFAH1B2, FP-rhodamine activity probe, fluorescence polarization | AID 492953;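 active means inhibition above the mean of all tested compounds plus 3 SD, cut at about 24% in these data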;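 further: 0% = enzyme with DMSO and 100% = wells lacking PAFAH1B2; many of its hits are not listed in these tables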
# PAFAH2 FP inh = PAFAH2 (human) inhibition; Q99487; 340,000 compounds, 0.99% hits; recombinant PAFAH2, FP-rhodamine activity probe, fluorescence polarization; inhibition, % at 3.39 µM;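 active means inhibition above the mean over all tested compounds plus 3 SD, cut at about 30% in these data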;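 further: inhibitors block probe labeling of enzyme so polarization drops; 0% = enzyme with DMSO and 100% = wells lacking PAFAH2 protein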
# PREPL inh = human PREPL enzyme inhibition; 320,000 compounds, 0.68% hits; AID 2751; recombinant PREPL, fluorescence polarization activity-based probe; inhibition, % at 5.96 µM; Q4J6C6; in the data active means inhibition above about 43%;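 further: 0% = enzyme with DMSO and 100% = wells lacking enzyme; many of its hits are not listed in these tables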
# GSTO1 inh = GSTO1 inhibition, counter-screen for RBBP9 inhibitors; recombinant GSTO1, activity-based probe fluorescence polarization; inhibition, % at 5.96 µM; 300,000 compounds, 1.1% hits;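 active means inhibition above the campaign mean inhibition plus 3 SD, cut at about 35% in these data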;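 further: 0% = GSTO1-1 with DMSO and 100% = wells lacking GSTO1-1 enzyme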
# Active calls of the source: *; / = not tested or not shown. Only part of the results is shown; rates above refer to the full screens.
# Sample of the layout, four compounds:
SMILES,LYPLA1 inh,PAFAH1B3 inh,PAD4 FP inh,LYPLA2 counter,PAFAH1B2 inh,PAFAH2 FP inh,PREPL inh,GSTO1 inh
C=CCn1c(SCC(=O)N(CC)C2CCS(=O)(=O)C2)nc2cc(C(=O)O)ccc2c1=O (stereo not drawn),-1,2,-4,-2,8,0,5,/
OC(CN1CCCCC1)Cn1c2ccc(Cl)cc2c2cc(Cl)ccc21 (stereo not drawn),-4,-10,-2,-5,5,-7,-13,-2
Cc1ccccc1NS(=O)(=O)c1ccc(OCC(=O)N2CCCCC2)cc1,2,13,5,1,5,-4,21,4
C=CCNc1nc(C(=O)OCC(=O)Nc2c(Cl)cccc2C(F)(F)F)cs1,2,-3,-5,8,1,1,13,0

# Main list, repeating the preview:
SMILES,LYPLA1 inh,PAFAH1B3 inh,PAD4 FP inh,LYPLA2 counter,PAFAH1B2 inh,PAFAH2 FP inh,PREPL inh,GSTO1 inh
C=CCn1c(SCC(=O)N(CC)C2CCS(=O)(=O)C2)nc2cc(C(=O)O)ccc2c1=O (stereo not drawn),-1,2,-4,-2,8,0,5,/
OC(CN1CCCCC1)Cn1c2ccc(Cl)cc2c2cc(Cl)ccc21 (stereo not drawn),-4,-10,-2,-5,5,-7,-13,-2
Cc1ccccc1NS(=O)(=O)c1ccc(OCC(=O)N2CCCCC2)cc1,2,13,5,1,5,-4,21,4
C=CCNc1nc(C(=O)OCC(=O)Nc2c(Cl)cccc2C(F)(F)F)cs1,2,-3,-5,8,1,1,13,0
COc1ccc(OCC(=O)N2CCN(C(=O)COc3ccc(Br)cc3)CC2)cc1,14,2,-4,13,-1,-5,-5,1
Cc1cccc(NS(=O)(=O)c2cccc(C(=O)N3CCC3)c2)c1,-2,12,-6,-2,8,19,0,/
CCCCOc1ccc(NS(=O)(=O)c2ccc(-n3cnnn3)cc2)cc1,-3,7,-2,6,0,-2,3,7
O=C(COC(=O)Cc1ccsc1)NCC12CC3CC(CC(C3)C1)C2,1,1,0,-8,46*,10,12,8
C/C(=N\NC(N)=S)c1cc(-c2ccccc2)c(-c2ccccc2)s1,-4,-7,4,-2,3,-1,-2,-3
Cc1ccc(NS(=O)(=O)c2ccc(OCC(=O)NCc3ccco3)cc2)cc1,0,-8,-1,2,3,-5,2,0
CCn1c(SCC(=O)Nc2ccccc2OC)nc2ccccc2c1=O,-1,0,-2,4,1,-1,-3,-2
O=C(NC1CCN(Cc2ccccc2)CC1)c1cccc(S(=O)(=O)Nc2ccc(Br)cc2)c1,1,1,0,-8,1,6,-1,1
O=[N+]([O-])c1cc(S(=O)(=O)Nc2ccccc2)ccc1NCc1ccccc1,-4,-2,2,-10,-2,-5,-10,4
CC(C)c1cccc(-c2ccc3c(c2)S(=O)(=O)c2cccc(C(=O)O)c2C3=O)c1,-1,9,-2,1,14,15,8,/
CCCC(=O)Oc1ccc(N(C(=O)CCC)S(=O)(=O)c2cccc([N+](=O)[O-])c2)cc1,4,2,-2,11,4,1,0,3
Cc1ccccc1NS(=O)(=O)c1ccc(C(=O)N2CCN(c3ccccc3O)CC2)cc1,1,10,4,-3,1,-6,-37,-1
CC(C)(C)c1ccc(C(=O)CCCSC2=C(C#N)C(c3ccco3)C3=C(CCCC3=O)N2)cc1 (stereo not drawn),-17,-5,0,-22,-2,-5,5,-17
CCc1ccc(NS(=O)(=O)c2ccc3[nH]c(=O)[nH]c3c2)cc1,-3,3,0,-2,6,-1,-9,15
CCCCN1CC(O)=C(c2nc3ccccc3s2)C1=N,2,9,-9,1,5,49*,16,2
CC(NC(=O)c1cc(S(=O)(=O)N(C)C)ccc1N1CCCC1)C1CC2CCC1C2 (stereo not drawn),3,2,-1,-1,1,29,0,12
Cc1ccc(C(=O)c2nc3c(n2O)CCCC3)cc1,2,10,-2,3,4,-1,-2,3
COc1ccc(Cc2nnc(Nc3ccccc3)s2)cc1Br,42*,9,83*,42*,5,3,16,36*
CCCc1cc(=O)oc2c3c(cc(OCC(=O)N[C@@H](C)C(=O)O)c12)OC(C)(C)CC3,-1,7,-8,2,2,28,12,-7
COCCNC(=S)N1CCN(c2cccc(C(F)(F)F)c2)CC1,3,5,-1,4,7,-1,-8,-1
CC(=O)Nc1cccc(NC(=O)C2CC(=O)N(CCc3ccc(F)cc3)C2)c1 (stereo not drawn),1,10,-3,6,0,-2,5,0
Cc1ccc(S(=O)(=O)c2nc(S(=O)(=O)c3ccccc3)sc2N2CCN(CCO)CC2)cc1,0,2,1,2,1,-3,22,-5
N#CCc1nc2ccc(S(=O)(=O)N3CCOCC3)cc2s1,-4,-5,-63,-17,-1,25,3,-69
Cc1cccc(-n2c(SCc3cc(=O)n4c(C)cccc4n3)nc3[nH]ncc3c2=O)c1,0,/,-1,1,/,/,6,-3
O=C(C1CCCN(S(=O)(=O)Cc2ccccc2)C1)N1CCC(Cc2ccccc2)CC1 (stereo not drawn),3,-7,-1,6,26*,-5,34,-5
O=c1[nH]c(SCc2ccccc2Cl)nc2c1CCCC2,0,3,3,6,-1,20,0,-4
C=C(C)CN(CC)C(=O)COc1ccc(S(=O)(=O)Nc2ccc(OC)cc2)cc1,-1,7,-2,5,6,3,7,9
COc1ccc(CCNC(=O)c2cc(S(=O)(=O)N(C)C)ccc2N2CCCC2)cc1,-1,4,-1,-2,1,-5,3,0
CCCc1cc(=O)oc2c3c(cc(OCC(=O)NCCN4CCOCC4)c12)OC(C)(C)CC3,5,-2,4,13,3,52*,1,-2
O=C(Nc1cc(S(=O)(=O)Nc2ccc(Cl)cc2)ccc1O)c1ccc(F)cc1F,/,0,-1,/,10,62*,0,/
CCN(CC)S(=O)(=O)c1ccc(C(=O)Nc2cc(S(=O)(=O)N3CCOCC3)ccc2O)cc1,/,11,-2,/,10,33*,7,/
COC(=O)c1sccc1NC(=O)CSc1ccccc1NS(=O)(=O)c1cc(Cl)ccc1Cl,-8,2,1,-2,3,18,-19,0
O=C(NCCCN1CCCCCC1)C1CC(=O)N(CCc2ccccc2)C1 (stereo not drawn),5,-1,-7,9,4,-2,33,0
Cc1ccc(Cc2cnc(N3C(=N)SC(c4ccccc4)C3=O)s2)cc1 (stereo not drawn),-5,9,3,-1,40*,4,32,-7
CCCc1cc(=O)oc2c3c(cc(OCC(=O)NCc4ccccn4)c12)OC(C)(C)CC3,-2,8,0,1,6,60*,0,-6
CCCc1ccc2oc(C(=O)N3CCC(N4CCCC(O)C4)CC3)c(C)c2c1 (stereo not drawn),-3,6,-2,5,-3,-4,3,4
COC(=O)CSc1nc(N)nc(C)c1Br,2,2,-5,1,-2,-4,18,-1
O=C(CN1CCC(n2nnc3cc(C(F)(F)F)ccc32)CC1)Nc1ccc2c(c1)OCCO2,2,-2,-6,3,3,-13,17,2
O=C1CN(C(=O)COC(=O)c2ccc(N3CCCCCC3)c([N+](=O)[O-])c2)c2ccccc2N1,-5,3,0,-1,8,2,0,-16
COc1ccc2c(-c3ccc(S(N)(=O)=O)cc3)c(-c3ccc(S(C)(=O)=O)cc3)sc2c1,/,4,-3,/,-2,18,20,/
O=C(COC(=O)c1ccc(S(=O)(=O)Nc2ccccc2)cc1)NC1CCCC1,-2,2,-9,-4,-3,17,6,-4
CCOc1ccc(NS(=O)(=O)c2ccc3[nH]cc(C(=O)NCCOC)c(=O)c3c2)cc1,-6,-4,-2,-15,0,10,15,10
Cc1ccc(NS(=O)(=O)c2cccc(C(=O)O)c2)c(C)c1,-1,-8,2,0,24*,3,3,9
O=C(NCc1ccccc1)c1ccc(CS(=O)(=O)Cc2ccccc2F)o1,3,1,-1,5,8,3,-14,0
COc1ccc(C(=O)c2nc3c(n2O)CCCCC3)cc1,2,5,-3,4,6,-2,-6,-8
COc1cc(/C=C/c2ccc3cccc(OC)c3n2)c(OC(C)=O)c([N+](=O)[O-])c1,6,6,6,1,5,9,11,14
CC(C)(CNC(=O)c1ccc(S(=O)(=O)Nc2ccc(Cl)cc2)cc1)N1CCOCC1,0,4,3,13,5,7,17,/
CC(C)(CNS(=O)(=O)c1ccc(F)cc1)CNS(=O)(=O)c1ccc(F)cc1,-1,3,-4,-1,0,-3,17,26
CCCCn1c(=O)c(CCC(=O)OCC(=O)Nc2cccc3ccccc23)nc2ccccc21,0,-6,-3,-7,-4,-2,3,2
CCOc1ccc(NS(=O)(=O)c2ccc3c(c2)CCN3C(=O)C2CCC2)cc1,1,0,5,1,-3,7,2,17
Cc1cc(C)nc(SCCS(=O)(=O)Cc2ccc(Cl)cc2)n1,7,1,-1,2,5,0,-5,-2
S=C(NCc1ccco1)N/N=C/c1ccccc1Cl,-3,5,-1,-4,-6,-2,-18,-3
CCOc1ccc(NS(=O)(=O)c2ccc(NS(=O)(=O)c3ccc(SC)cc3)cc2)cc1,-5,-7,-6,-8,-1,-3,-1,3
CCS(=O)(=O)c1ccc(O)c(NC(=O)Nc2ccc(C(C)(C)C)cc2)c1,-4,1,-2,-4,11,8,7,-4
Cc1cc(C)c(S(=O)(=O)Nc2cccc(/C=C/C(=O)O)c2)c(C)c1,-4,10,3,-5,5,4,-3,0
O=C(c1ccco1)N1CCN(C(=O)c2ccc(COc3ccc(F)cc3)o2)CC1,-6,2,-5,0,-5,6,14,3
CCOC(=O)c1[nH]c(C)c(CN(Cc2ccco2)C(=O)C(F)(F)F)c1C,2,3,0,-9,15,10,-2,-4
O=C(COC(=O)c1ccccc1Cl)NCc1ccco1,/,-10,1,/,4,10,16,/
COc1ccc(/C=N/Nc2nc(-c3ccc(Cl)cc3)cc(C(F)(F)F)n2)cc1OC,-8,16,-6,-5,1,-6,11,-14

# An excerpt from above in order of count of non-hydrogen atoms, falling.
SMILES,LYPLA1 inh,PAFAH1B3 inh,PAD4 FP inh,LYPLA2 counter,PAFAH1B2 inh,PAFAH2 FP inh,PREPL inh,GSTO1 inh
CCOc1ccc(NS(=O)(=O)c2ccc3[nH]cc(C(=O)NCCOC)c(=O)c3c2)cc1,-6,-4,-2,-15,0,10,15,10
CC(C)(CNC(=O)c1ccc(S(=O)(=O)Nc2ccc(Cl)cc2)cc1)N1CCOCC1,0,4,3,13,5,7,17,/
O=C(c1ccco1)N1CCN(C(=O)c2ccc(COc3ccc(F)cc3)o2)CC1,-6,2,-5,0,-5,6,14,3
CCOC(=O)c1[nH]c(C)c(CN(Cc2ccco2)C(=O)C(F)(F)F)c1C,2,3,0,-9,15,10,-2,-4
Cc1cc(C)nc(SCCS(=O)(=O)Cc2ccc(Cl)cc2)n1,7,1,-1,2,5,0,-5,-2
S=C(NCc1ccco1)N/N=C/c1ccccc1Cl,-3,5,-1,-4,-6,-2,-18,-3

# Shown field by field: part of the list above.
CCOC(=O)c1[nH]c(C)c(CN(Cc2ccco2)C(=O)C(F)(F)F)c1C
  LYPLA1 inh = 2; PAFAH1B3 inh = 3; PAD4 FP inh = 0; LYPLA2 counter = -9; PAFAH1B2 inh = 15; PAFAH2 FP inh = 10; PREPL inh = -2; GSTO1 inh = -4

CCOc1ccc(NS(=O)(=O)c2ccc(NS(=O)(=O)c3ccc(SC)cc3)cc2)cc1
  LYPLA1 inh = -5; PAFAH1B3 inh = -7; PAD4 FP inh = -6; LYPLA2 counter = -8; PAFAH1B2 inh = -1; PAFAH2 FP inh = -3; PREPL inh = -1; GSTO1 inh = 3
